Source: PubChem (ICCB-Longwood Screening Facility, Harvard Medical School)
Polio RdRp inh – inhibitors of poliovirus RNA polymerase binding and polymerization; poliovirus polymerase elongation, fluorescence polarization; stronger effect = lower value; % elongation, % (compound at 16.7 µg/mL); hit rate 0.66% among 150,000; AID 588519; in the data active means % elongation below about 90%; further: some results filed as inactive read as strong as hits
Target sequence (P03300 1749-2209 limits assumed): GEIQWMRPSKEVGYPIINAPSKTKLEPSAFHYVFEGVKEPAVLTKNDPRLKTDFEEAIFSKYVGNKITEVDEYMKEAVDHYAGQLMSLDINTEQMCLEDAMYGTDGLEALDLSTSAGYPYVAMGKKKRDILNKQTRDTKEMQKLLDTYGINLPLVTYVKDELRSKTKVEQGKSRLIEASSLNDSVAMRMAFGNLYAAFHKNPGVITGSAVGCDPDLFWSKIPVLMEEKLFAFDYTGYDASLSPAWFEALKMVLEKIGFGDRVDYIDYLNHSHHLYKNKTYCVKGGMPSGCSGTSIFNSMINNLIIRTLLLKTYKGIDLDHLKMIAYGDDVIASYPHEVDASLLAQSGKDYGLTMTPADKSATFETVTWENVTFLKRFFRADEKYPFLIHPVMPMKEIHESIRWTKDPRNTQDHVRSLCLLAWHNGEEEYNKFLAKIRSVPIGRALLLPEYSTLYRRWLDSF
Polio RdRp inh intensity – recorded beside Polio RdRp inh, whose call it bears; % elongation; measured here: total intensity read-out; formula for this scale not given here;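 total fluorescence in place of polarization; lower means less elongation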
* = called active by the depositor.

SMILES	Polio RdRp inh	Polio RdRp inh intensity
Cc1cc(C)cc(N2C(=O)N(Cc3cccc(F)c3)c3ccccc3S2(=O)=O)c1	113	108
CCOC(=O)c1c(NC(=O)COc2ccc(Cl)cc2C)sc(C(C)=O)c1C	107	112
Cc1cc(Nc2ccc(C)c(Cl)c2)n2nc(Cc3ccccc3)nc2n1	110	112
COc1ccc(Br)c2c1-c1nc(NC(=O)c3cccc(C)c3)sc1C2	96	104
CC(C)(C)OC(=O)N1CCC(c2c(C(=O)N3CCCCC3)cnn2-c2ccc(F)cc2)CC1	104	100
Cc1cc(NC(=O)CSc2nc3c([nH]c4ccccc43)c(=O)n2-c2cccc(Cl)c2)no1	102	107
CC1=C(c2ccc(F)cc2)S(=O)(=O)N=C1N1CCC(C(=O)NCCc2cccc(C)c2)CC1	112	117
Clc1ccc(Nc2nc(-c3ccccc3)c3ccccc3n2)c(Cl)c1	98	93
CCC(C(=O)NCCc1ccc(OC)c(OC)c1OC)n1nc(C)c2sc3ccccc3c2c1=O (configuration not stated)	106	107
O=C(NCc1cccc(Cl)c1)c1cnc(N2CCOCC2)c2ccccc12	108	114
CC1CCN(S(=O)(=O)c2cn(CC(=O)Nc3cccc(C(F)(F)F)c3)c(=O)c3ccccc23)CC1	108	109
COc1ccccc1OCc1nc2ccccc2n1Cc1ccccc1	107	106
Cc1cc(C)cc(NC(=O)CCCc2nc(-c3ccco3)no2)c1	99	101
CCc1ccc(NC(=O)CN2C(=O)C(=O)c3ccccc32)cc1	110	111
Cc1oc2cc3oc(=O)c(CCC(=O)NCCc4ccccc4F)c(C)c3cc2c1C	107	102
O=C(Nc1cccc(Cl)c1)C1CCCN(c2ncnc3c2nc2n3CCCCC2)C1 (configuration not stated)	103	103
Cc1c(C)n(C)c2ccc(C(=O)NCCCN3CCCCC3)cc12	110	107
Cc1cccc(OCC(=O)N(Cc2ccccc2)c2ccccn2)c1	103	106
CCCCNc1nc(Oc2ccc(=O)n(-c3ccccc3)n2)nc(N(C)C)n1	107	113
Cc1cccc(NC(=O)Cn2c(=O)n(CCC(=O)N3CCc4ccccc4C3)c(=O)c3ccccc32)c1	108	110

2 entries from above, field by field.
structure: COc1ccc(Br)c2c1-c1nc(NC(=O)c3cccc(C)c3)sc1C2
  Polio RdRp inh: 96
  Polio RdRp inh intensity: 104

structure: Cc1cc(C)cc(N2C(=O)N(Cc3cccc(F)c3)c3ccccc3S2(=O)=O)c1
  Polio RdRp inh: 113
  Polio RdRp inh intensity: 108

The list continues:
SMILES	Polio RdRp inh	Polio RdRp inh intensity
CCc1ccc(CNC(=O)c2cc3c(=O)n(Cc4cccs4)ccc3nc2C)cc1	110	111
COc1ccc(OC)c(-c2cc(C(=O)Nc3cccc(Cl)c3C)no2)c1	106	106
CCN(c1cccc(C)c1)S(=O)(=O)c1ccc2[nH]cc(C(=O)NCCCOC)c(=O)c2c1	102	108
CC(C)n1cc2c(c1-c1ccccc1Cl)c(=O)n(C)c(=O)n2C	103	103
CCN(Cc1ccccc1)c1ncnc2c1nnn2C	102	113
Cc1ccc(S(=O)(=O)c2nc(-c3cccs3)oc2N2CCCCC2)cc1	101	104
Cc1ccc2[nH]c(C)c(CCNC(=O)c3cc4cc(Br)ccc4oc3=O)c2c1	101	103
CC1CCc2nc3ncn(Cc4ccccc4C#N)c(=O)c3cc2C1 (configuration not stated)	110	117
Cc1cccc(NC(=O)CN2C(=O)CC(c3ccccc3)Sc3ccccc32)c1 (configuration not stated)	106	108
COc1ccc2nc3sc(C(=O)N4CCN(c5ccccc5)CC4)cc3cc2c1	117	117
CCCC1=Nc2cc(C(=O)NC3CCCCC3)ccc2Sc2ccc(C)cc21	103	105
CCN(C(=O)CSc1nnc(-c2cc3occc3n2C)n1-c1ccccc1C)c1cccc(C)c1	111	118
Cc1ccc(C)c(C(=O)COC(=O)CCCC(=O)Nc2cc(C(F)(F)F)ccc2Cl)c1	108	112
COc1ccc(NC(=O)c2ccc(NC(=O)CCS(=O)(=O)c3cccs3)cc2)cc1OC	108	112
O=C(NCCc1ccccc1)c1cc(-c2ccccc2)nc2n[nH]c(-c3ccccc3)c12	103	110
CCc1ccc(-n2c(=O)c3c4c(sc3n(CC(=O)c3ccc(F)cc3)c2=O)CCC4)cc1	101	102
NC(=O)C1CCN(C(=O)Cn2c(-c3cccs3)cc3ccccc32)CC1	114	110
CCOC(=O)c1ccc(CN(Cc2ccc(OC)cc2)S(=O)(=O)c2cccc(C(F)(F)F)c2)cc1	103	106
COc1ccc(-c2nc(SCC(=O)N3CCN(c4ccc(F)cc4)CC3)n[nH]2)cc1	104	109
COc1ccc(OC2CCN(S(=O)(=O)c3ccc(OC)cc3)CC2)cc1	110	105
CCCCN(C)CCCNC(=O)Cn1ncc2c3ccccc3n(Cc3ccccc3F)c2c1=O	103	104
Cc1cc(C)cc(NC(=O)C2CC(=O)N(c3ccccc3)C2)c1 (configuration not stated)	106	109
COc1ccc(OC)c(NC(=O)CCn2cccn2)c1	109	115
Cc1c(Cl)cccc1NC(=O)CCOc1ccccc1	98	98
CCc1ccc(C2=CC(c3c(F)cccc3Cl)n3c(nc4ccccc43)N2)cc1 (configuration not stated)	113	201
Cc1ccc(-c2[nH]c3ccccc3c2SCCNC(=O)c2ccc(S(=O)(=O)N3CCOCC3)cc2)cc1	103	106
CCOc1ccc(C(=O)NCCn2cc(SCC(=O)Nc3ccc4c(c3)OCCO4)c3ccccc32)cc1	105	107
COc1ccc(-c2nn(C)c3sc(C(=O)NCCN(C)C)cc23)cc1OC	60*	15*
COc1ccc(N2CC(NC(=O)C3CC3)CC2=O)cc1 (configuration not stated)	104	104
Nc1nonc1-c1nc2ccccc2n1Cc1cccc(Cl)c1	109	113
CC1CCC(NC(=O)c2ccc3c(c2)N(Cc2ccccc2)C(=O)c2ccccc2S3=O)CC1 (configuration not stated)	102	97
Cc1ccc(-c2noc(CCC(=O)Nc3ccc(F)cc3Cl)n2)cc1	105	111
Cc1cccc2sc(N(CCCN(C)C)C(=O)COc3ccccc3)nc12	99	96
CCc1ccc(CN(Cc2ccco2)C(=O)c2ccc(OC)cc2)cc1	111	113
Cc1nnc(N2CCCC(C(=O)NCCc3ccccc3)C2)c2nn(-c3ccccc3)c(C)c12 (configuration not stated)	102	101
CCOc1ccc(NC(=O)NC(CC)Cn2nnc3ccccc3c2=O)cc1 (configuration not stated)	107	99
CCOc1ccc(NS(=O)(=O)c2ccc3c(c2)CCCN3C(=O)C2CCC2)cc1	102	103
Cc1ccc2oc(-c3cc(NC(=O)c4oc5ccccc5c4C)ccc3Cl)nc2c1	112	114
Cc1ccc(-c2noc(-c3ccc(N4CCOCC4)c([N+](=O)[O-])c3)n2)cc1	100	108
CCOC(=O)c1cccc(Nc2ccc3cc(S(=O)(=O)N4CCCCC4)ccc3n2)c1	108	107
O=C(NCc1noc2ccccc12)N1CCN(c2ccccc2F)CC1	107	110
COc1ccc(CNC(=O)c2cnc3sc(N4CCCC4)nn3c2=O)c(OC)c1	114	110
COc1cccc(CNC(=O)Cc2csc3ccccc23)c1OC	102	115
CNS(=O)(=O)c1cn(CC(=O)Nc2ccc(C(C)=O)cc2)cc1S(=O)(=O)NC	103	104
O=C(CSC1=Nc2ccccc2C2=NC(Cc3ccccc3)C(=O)N12)Nc1ccccc1 (configuration not stated)	96	112
CCN(C(=O)Cn1c(SCC(=O)NCc2ccccc2)nc2ccccc21)c1cccc(C)c1	105	106
Cc1nn2c(=O)cc(COC(=O)COc3ccc(F)cc3)nc2s1	88	94
COc1ccc(-c2nc(SCC(=O)Nc3ccc4c(c3)OCCO4)c(-c3ccc(F)cc3)[nH]2)cc1OC	114	114
CCOc1ccc(-c2cn3c(n2)sc2cc(C(=O)NCCc4ccc(OC)c(OC)c4)ccc23)cc1	109	108
O=C(Nc1ccc(OCc2cc(=O)n3ccccc3n2)cc1)c1ccccc1Cl	103	111
The results go on:
SMILES	Polio RdRp inh	Polio RdRp inh intensity
CCOc1ccc(-c2nnc(SCC(=O)Nc3cc(F)ccc3F)o2)cc1	103	111
CCN(Cc1ccccc1)C(=O)Cn1c(=O)n(-c2ccc(Cl)cc2)c(=O)c2c(C)c(C(=O)N(C)C)sc21	105	112
Cc1ccc2c(=O)c(C(=O)c3ccccc3)cn(CC(=O)NCc3ccccc3)c2n1	114	118
Cc1cccc(N2CCN(C(=O)c3ccc4c(c3)c(C)c(C)n4C)CC2C)c1 (configuration not stated)	106	99
O=C(Cn1cc(SCc2ccc(C(F)(F)F)cc2)c2ccccc21)N1CCCC1	122	120
O=C(Nc1cccc(NC(=O)c2ccccc2F)c1)c1ccccc1	107	107
Cc1ccc(NC(=O)c2nc(S(C)(=O)=O)ncc2N(Cc2cccc(F)c2)Cc2ccco2)cc1C	107	107
COc1ccc(NC(=O)C2CCCN(C(=O)c3cnn(-c4ccccc4)c3-n3cccc3)C2)cc1 (configuration not stated)	104	106
COc1ccc(NC(=O)c2nnn(Cc3ccccc3C)c2N)c(OC)c1	106	105
CCOc1ccc(NC(=O)C2CCCN(S(=O)(=O)c3c(C)noc3/C=C/N(C)C)C2)cc1 (configuration not stated)	105	105
CCn1c(SCC(=O)c2ccccc2)nnc1-c1cccc(Cl)c1	102	106
COc1ccc(CCNC(=O)c2ccc(-n3c(C)cc4c3CCC(C)C4)cc2)cc1OC (configuration not stated)	107	114
Cc1oc2c(c(C)cc3oc(=O)c(CC(=O)NCc4ccc(F)cc4)c(C)c32)c1C	104	103
Cc1ccc(NC(=O)CN(C)S(=O)(=O)c2ccc3c(c2)n(C)c(=O)c(=O)n3C)cc1F	102	103
CCOC(=O)c1ccccc1NC(=O)CSc1nccn1Cc1ccco1	108	112
CC(=O)c1cccc(NC(=O)Cn2c(C)c3cnn(-c4ccccc4)c(=O)c3c2C)c1	106	107
COc1ccc(CCNc2ncnc3onc(C)c23)c(OC)c1	113	105
COc1ccc(C(CNC(=O)c2ccc(F)cc2)N2CCCC2)cc1 (configuration not stated)	101	91
CCOc1ccccc1NC(=O)CSc1nccn1-c1ccc(Cl)cc1	108	107
Cc1ccc(N2C(=O)N(CC(=O)C(C)(C)C)c3ccccc3S2(=O)=O)cc1C	105	100
Cc1nn(CC(=O)NCc2ccccc2Cl)c(=O)c2nn(-c3ccccc3)c(C)c12	112	97
CCOc1ccc(-c2nonc2NC(=O)c2oc3cc(Br)ccc3c2C)cc1	102	103
CCOc1ccc(C2Nc3c(C)cccc3-c3cc(C)nn32)cc1 (configuration not stated)	102	100
COc1ccc(N2CC(NC(=O)c3cc4ccccc4o3)CC2=O)cc1OC (configuration not stated)	109	114
O=C(Nc1cccc2cccnc12)c1ccc(-c2cccc(Cl)c2)o1	105	107
COc1ccc(-n2nnnc2C2CCN(S(=O)(=O)c3ccc(NC(C)=O)cc3)CC2)cc1	112	116
COc1cc(Cl)c(NC(=O)CN2C(=O)c3cccnc3Sc3ccccc32)c(OC)c1	107	108
Cc1nnc(SCC(=O)NCc2cccc(F)c2)c2nn(-c3ccccc3)c(C)c12	95	102
COc1ccc(-c2ccc(CCC(=O)O)n2-c2ccc(Cl)cc2C)cc1	96	95
CCN(CC)C(=O)c1sc2c(c1C)c(=O)n(Cc1ccccc1)c(=O)n2Cc1c(C)cc(C)cc1C	110	112
COc1ccccc1CNC(=O)CCc1c(C)nc2cc(-c3ccc(Cl)cc3)nn2c1C	103	97
COc1cccc(N2CCN(C(=O)CCCn3c(=O)[nH]c4ccc(Br)cc4c3=O)CC2)c1	108	110
CC(C)CN(CCCNC(=O)c1cc(-c2cccs2)nc2ccccc12)CC(C)C	100	101
CC(C)Sc1ncc(Cl)c(C(=O)Nc2nc3ccc(S(C)(=O)=O)cc3s2)n1	112	106
COc1ccc(NC(=O)c2ccco2)cc1NC(=O)C(C)(C)Oc1ccc(Cl)cc1	107	110
CCc1ccccc1NC(=O)CSc1nc(C)c(C(=O)Nc2ccccc2)c(-c2ccc(Cl)cc2)c1C#N	110	114
Cc1cccc(Cn2cccc(C(=O)Nc3cc(C)on3)c2=O)c1	99	105

Of the compounds above, these have a furan ring, fused or not:
SMILES	Polio RdRp inh	Polio RdRp inh intensity
Cc1cc(C)cc(NC(=O)CCCc2nc(-c3ccco3)no2)c1	99	101
Cc1oc2cc3oc(=O)c(CCC(=O)NCCc4ccccc4F)c(C)c3cc2c1C	107	102
CCN(C(=O)CSc1nnc(-c2cc3occc3n2C)n1-c1ccccc1C)c1cccc(C)c1	111	118
CCc1ccc(CN(Cc2ccco2)C(=O)c2ccc(OC)cc2)cc1	111	113
Cc1ccc2oc(-c3cc(NC(=O)c4oc5ccccc5c4C)ccc3Cl)nc2c1	112	114
Cc1ccc(NC(=O)c2nc(S(C)(=O)=O)ncc2N(Cc2cccc(F)c2)Cc2ccco2)cc1C	107	107
Cc1oc2c(c(C)cc3oc(=O)c(CC(=O)NCc4ccc(F)cc4)c(C)c32)c1C	104	103
CCOC(=O)c1ccccc1NC(=O)CSc1nccn1Cc1ccco1	108	112
CCOc1ccc(-c2nonc2NC(=O)c2oc3cc(Br)ccc3c2C)cc1	102	103
COc1ccc(N2CC(NC(=O)c3cc4ccccc4o3)CC2=O)cc1OC (configuration not stated)	109	114
O=C(Nc1cccc2cccnc12)c1ccc(-c2cccc(Cl)c2)o1	105	107
COc1ccc(NC(=O)c2ccco2)cc1NC(=O)C(C)(C)Oc1ccc(Cl)cc1	107	110

An excerpt; count on the stated rates, not on these rows.
